Bioassay records (PubChem)
HNF4A DNA FP: change in binding of human HNF4 alpha to DNA; activity change, % at 10 µM; HNF4a-FITC DNA binding, fluorescence polarization, 1 h; actives 0.3% (n = 360,000); in the data active = activity change above about 30%, passing the limit was not always enough;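 also: controls were the assay level and a saturating level of protein; the project sought stronger binding though the title names inhibitors; some compounds called inactive have numbers as strong as hits; positive values seem to mean higher polarization but the record does not say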
UCH37 inh: blocks the human deubiquitinase UCH37. inhibition, % (no concentration beside the values). AID 588478. Q9Y5K5. actives 0.33% (n = 330,000). purified proteasome/UCH37, Ub-AMC cleavage fluorescence;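 active = mean of two replicates above 20%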;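 also: 0% = compound-free wells with enzyme and 100% = wells lacking proteasome; stock transfer was 100 nL into about 20 µL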
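Test system – human UCH37 enzyme supplied as purified proteasome complex · Incubation – 30 min preincubation with enzyme, 25 min cleavage at room temperature · Detection – AMC fluorescence from Ub-AMC cleavage, excitation 355 nm, emission 460 nm · Benchmarks – no-proteasome wells (full inhibition) and compound-free wells (no inhibition)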
LANA-H2B inh: blocks KSHV LANA binding to histone H2A/H2B; Q9QR71; cell-free LANA-H2A/H2B peptide, fluorescence polarization; inhibition, % (no concentration beside the values); actives 0.6% (n = 320,000); in the data active = inhibition mostly above about 10%, no sharp cut-off; inactive = mostly below about 6.7%;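 also: stock transfer was 7.5 nL into about 10 µL; 0% = median of vehicle wells and 100% = median of positive control wells; one replicate is shown; the record names a cut of 25% in any replicate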
Target sequence (Q9QR71 whole entry, looked up): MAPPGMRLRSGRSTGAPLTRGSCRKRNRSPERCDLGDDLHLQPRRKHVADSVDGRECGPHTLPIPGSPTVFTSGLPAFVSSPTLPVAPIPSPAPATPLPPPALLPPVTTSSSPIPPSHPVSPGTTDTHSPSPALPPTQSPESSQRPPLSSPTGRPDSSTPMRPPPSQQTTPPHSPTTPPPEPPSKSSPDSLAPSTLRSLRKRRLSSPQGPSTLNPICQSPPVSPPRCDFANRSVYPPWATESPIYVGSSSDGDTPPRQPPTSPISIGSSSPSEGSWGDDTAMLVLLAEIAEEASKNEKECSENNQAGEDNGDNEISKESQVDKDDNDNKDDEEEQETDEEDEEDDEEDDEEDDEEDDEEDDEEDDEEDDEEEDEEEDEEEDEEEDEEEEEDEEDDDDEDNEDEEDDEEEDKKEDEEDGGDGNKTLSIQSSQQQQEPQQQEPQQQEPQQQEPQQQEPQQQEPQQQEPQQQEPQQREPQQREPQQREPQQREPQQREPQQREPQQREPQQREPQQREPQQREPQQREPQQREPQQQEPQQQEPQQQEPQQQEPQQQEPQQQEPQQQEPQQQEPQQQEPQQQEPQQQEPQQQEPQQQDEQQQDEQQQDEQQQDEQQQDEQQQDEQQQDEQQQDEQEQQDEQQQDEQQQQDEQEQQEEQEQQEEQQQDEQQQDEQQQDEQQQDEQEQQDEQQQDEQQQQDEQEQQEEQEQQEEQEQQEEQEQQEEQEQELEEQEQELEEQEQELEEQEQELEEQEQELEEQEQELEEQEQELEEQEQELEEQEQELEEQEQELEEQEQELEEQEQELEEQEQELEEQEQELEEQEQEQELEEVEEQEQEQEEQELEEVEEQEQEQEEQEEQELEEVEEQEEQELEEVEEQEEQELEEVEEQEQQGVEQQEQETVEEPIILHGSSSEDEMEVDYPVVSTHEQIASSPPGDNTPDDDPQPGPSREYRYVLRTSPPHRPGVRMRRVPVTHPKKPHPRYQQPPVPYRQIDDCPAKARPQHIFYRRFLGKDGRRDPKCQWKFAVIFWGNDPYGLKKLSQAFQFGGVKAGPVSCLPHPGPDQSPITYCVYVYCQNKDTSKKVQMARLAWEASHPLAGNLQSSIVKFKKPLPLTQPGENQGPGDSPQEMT
B2AR ag: activates human beta-2 adrenergic receptor causing internalization; response, % (concentration not given with the values); P07550; actives 0.43% (n = 340,000); Am2.2-beta2AR cells, FAP receptor internalization, flow cytometry; reference of the scale not given here;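 active = response above a set limit, near 3 SD of response in nonfluorescent compounds, cut at about 42% in these data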;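 also: stock transfer was 100 nL into about 11 µL; a reference agonist was the positive control; negative values mostly stem from fluorescent compounds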
ALR inh: inhibitors of human sulfhydryl oxidase ALR | actives 3.8% (n = 290,000) | inhibition, % (no concentration beside the values) | AID 485317 | purified ALR, DTT oxidation, H2O2 HRP-luminol luminescence;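 active = mean and each replicate at 75% or more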;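 also: stock transfer was 7.5 nL into about 7.5 µL; 0% = neutral wells and 100% = wells with inactivated enzyme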
FGF22 binding: FGF22 (human) thermal shift binding; Q9HCT0; recombinant FGF22 thermal shift, SYPRO orange fluorescence; percent of sucrose octasulfate shift, DMSO zero; calls only at 9.99 µM; actives 1.5% (n = 340,000);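 active = melting point raised past a set limit in the mean and every replicate; three in four hits are not shown here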
E coli growth: blocks Escherichia coli growth; actives 0.21% (n = 330,000); OD600, 23 h; stronger effect = lower value; AID 1053175; OD600 absorbance (concentration not given with the values);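 active = OD600 absorbance below the run mean of sample wells minus 3.6 SD, in any replicate, cut at about 0.56 in these data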;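 also: stock transfer was 300 nL into about 60 µL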
Active calls of the source: *; i = inactive; . = not tested or not shown. The list is partial; rates above refer to the full screens.

SMILES | UCH37 inh | HNF4A DNA FP | LANA-H2B inh | B2AR ag | E coli growth | ALR inh | FGF22 binding
CCOc1ccc(C2C(C(=O)c3ccco3)=C(O)C(=O)N2CCCn2ccnc2)cc1 (stereo unspecified) | 8.3 | 3.4 | . | 1 | 0.7 | . | .
COC(=O)c1c(NC(=O)Cc2ccccc2)sc(C)c1C | -0.9 | 0.9 | -0.3 | 3 | 0.71 | -4 | .
COC(=O)c1ccc(NC(=S)NCCCn2ccnc2)cc1 | 5.8 | -2.0 | -4.1 | -1 | 0.71 | -4 | i
Cc1nn(C)c(C)c1/C=C(\C#N)C(N)=O | 9.2 | -0.8 | -10 | 3 | 0.68 | -13 | i
NC(=O)C1CCCN1Cc1ccc2c(c1)OCO2 (stereo unspecified) | . | 4.9 | . | -1 | . | . | i
CNC(=O)NC(=O)Cn1nc2n(c1=O)-c1ccccc1SC2 | 1.7 | 3.5 | -2.7 | -2 | 0.68 | -13 | i
CN(C)S(=O)(=O)c1cc(NC(=O)CNCc2ccccc2)ccc1Cl | -4.0 | -2.4 | 2.2 | -11 | 0.67 | -4 | i
C/C(=N/N1CCN(Cc2cccc3ccccc23)CC1)c1ccco1 | . | 2.6 | 0.6 | 4 | . | 1 | i
Cc1ccc(-c2nc3ccccn3c2C=O)cc1 | 1.5 | 3.2 | 4.6 | -15 | 0.62 | -4 | i
COc1cc(C(=O)Nc2ccncc2)c([N+](=O)[O-])cc1OC | 7.9 | -2.4 | -4.9 | 0 | 0.69 | -8 | i
CCCCCNc1nc2sc3c(c2c(=O)n1-c1cccc(Cl)c1)CCN(C)C3 | -46 | 25 | -2.5 | 8 | 0.64 | . | i
O=c1c(O)cccc2cc(O)c(O)c(O)c12 | 13 | -86 | 0.8 | 5 | 0.63 | 100* | i
CC(C)CC(CO)N1CCN(C(=O)c2ccc(C(C)(C)C)cc2)CCC1=O (stereo unspecified) | 0.8 | -1.6 | -1.5 | -5 | 0.67 | . | i
C=CCn1c2ccccc2c2nnc(SC(CC)C(=O)Nc3nc(C)c(C(=O)OCC)s3)nc21 (stereo unspecified) | 0.1 | 3.3 | -7.8 | 7 | 0.67 | -17 | .
CCOC(=O)N1CCC(n2c(SCC(=O)Nc3ccccc3OC)nc3ccccc3c2=O)CC1 | 2.1 | 0.7 | 2.2 | 4 | 0.69 | -4 | .
COc1ncnc(-c2ccccc2)c1-c1ccccc1 | 0.4 | 0.9 | -5.5 | -2 | 0.64 | 2 | i
O=C(O)c1ccccc1C(=O)NCc1ccc(F)cc1 | 2.2 | 6.0 | 20* | 4 | 0.74 | -4 | .
Cc1cc(=O)[nH]c2c(C)cc(S(=O)(=O)NCc3ccccc3)cc12 | -1.1 | -3.4 | 2.4 | -3 | 0.73 | -3 | i
CCn1cc(C(=O)O)c(=O)c2cnc(N3CCN(C(=S)NC(=O)c4ccccc4Cl)CC3)nc21 | 3.7 | . | 6.6 | . | 0.61 | 0 | .
COc1cc(OC)cc(C(=O)NCC2CCCN(Cc3cccc(C(C)=O)c3)C2)c1 (stereo unspecified) | 1.7 | 0.4 | 3.8 | -12 | 0.68 | -2 | i
COc1ccc(OCc2cc(C(=O)N(C)Cc3nccn3C)no2)c2ccccc12 | 3.5 | 3.8 | 2.7 | 13 | 0.69 | -31 | i
Cc1cc(C)cc(C(=O)N2CC(=O)Nc3ccccc32)c1 | -1.3 | -7.4 | 4.7 | 19 | 0.71 | -1 | .
COc1ccc(CN(C)CC(=O)NC(C)c2ccccc2)c(OC)c1 (stereo unspecified) | 2.6 | 2.7 | 3.4 | 3 | 0.71 | -2 | i
COc1ccc(C(=O)N/C(=C\c2ccc3c(c2)OCO3)C(=O)NCCc2nc3ccccc3[nH]2)cc1 | 2.6 | -4.5 | -0.6 | -5 | 0.74 | -2 | .
CC(CCc1ccccc1)NC(=O)N1CCOCC1 (stereo unspecified) | -1.2 | -0.4 | 1.7 | 2 | 0.68 | -6 | .
O=C(OCC(=O)N1CCCCCC1)c1n[nH]c(=O)c2ccccc12 | 0.5 | -1.7 | 3.5 | 6 | 0.71 | -6 | .
Clc1ccc2c(c1)-c1[nH]ncc1CS2 | 4.4 | 2.3 | 1.4 | 7 | 0.68 | -3 | i
CCC1CCCCN1S(=O)(=O)c1ccccc1[N+](=O)[O-] (stereo unspecified) | 1.0 | -8.6 | 3.0 | -2 | 0.7 | -8 | i
CCn1c(-c2cccc(Br)c2)n[nH]c1=S | 1.0 | -0.1 | -6.9 | 1 | 0.71 | . | .
COP(=O)(OC)c1nc(-c2ccccc2)oc1N1CCOCC1 | -243 | 1.3 | -1.6 | 1 | 0.68 | -3 | .
CCCN1CCN(C(=O)CCCNC(=O)c2ccc(Cl)cc2)CC1 | 1.1 | -0.8 | 2.9 | -3 | 0.63 | -4 | i
CCN(CC)c1nc(N(CC)CC)[nH]c(=O)n1 | 2.5 | -1.3 | 1.2 | 6 | 0.65 | -3 | .
COC(=O)Nc1ccc(S(=O)(=O)N(CCO)CC(F)(F)C(F)F)cc1 | 2.5 | 0.5 | -1.4 | 4 | 0.7 | -7 | .
CCCCN=C1NC(=O)C(CC(=O)Nc2ccc(Cl)cc2)S1 (stereo unspecified) | 2.8 | -2.9 | 2.1 | -8 | 0.7 | . | .
Cc1ccc(CNC(=O)c2ccccc2CCc2ccccc2)cc1 | 3.5 | -3.6 | 6.0 | -6 | 0.68 | -2 | i
CC(=O)NCCCNS(=O)(=O)c1ccc(C)cc1 | 1.7 | 0.3 | 0.3 | -5 | 0.66 | -3 | i
Cc1cccc(C)c1NC(=O)CCCSc1nnc(N)s1 | 4.7 | 3.9 | -3.4 | -3 | 0.71 | -8 | i
CC(C)C(=O)Nc1cccc(COc2ccc(CN(CCc3ccccc3)C(=O)OC(C)(C)C)cc2)c1 | . | 5.3 | . | 3 | . | . | i
Cc1ccnc(N2CCCC(C(=O)Nc3ccc(C)c(C)c3)C2)n1 (stereo unspecified) | -2.2 | 0.4 | -0.7 | 2 | 0.7 | 0 | i
O=C(Nc1cccc(NC(=O)C2CC2)n1)C1CC1 | 0.8 | -0.3 | 1.9 | -5 | 0.65 | -22 | .
CCCS(=O)(=O)n1nc(-c2ccccc2)cc1N | 5.0 | -0.8 | -0.4 | 11 | 0.71 | -2 | i
COC(=O)COc1ccc(Oc2nc(SC)nc(N(C)C)n2)nn1 | 3.3 | -0.3 | -1.4 | -1 | 0.66 | -2 | .
N#Cc1nc(-c2ccc(F)cc2)oc1N1CCCCC1 | -91 | -0.8 | 0.5 | 2 | 0.69 | 2 | i
CCNc1nc(N)nc(Oc2ccc(OCC)nn2)n1 | 1.1 | 4.6 | -2.5 | 1 | 0.65 | -7 | .
CCCC1(C(=O)O)NC(c2ccccc2O)C2C(=O)N(c3cccc(Cl)c3)C(=O)C21 (stereo unspecified) | 3.1 | 4.8 | -0.8 | 11 | 0.71 | 34 | i
CCOC(=O)c1c(NC(=O)C2CCCN2S(=O)(=O)c2cccc3nsnc23)sc(C)c1C (stereo unspecified) | 0.0 | -1.8 | . | -8 | 0.71 | . | i
CC(=O)c1cccc(NC(=O)N2CCCC2C(=O)NC2CCCC2)c1 (stereo unspecified) | 0.5 | 3.3 | 2.0 | -5 | 0.7 | . | i
COc1ccc(NC(=O)CSc2nnc(-c3cccnc3)n2C)cc1 | 2.0 | 0.8 | 3.7 | 6 | 0.64 | . | i
CC1(C)CC(=O)C(C=NCCN2CCN(C(=O)c3ccccc3)CC2)=C(O)C1 | 3.8 | 2.1 | 0.5 | 3 | 0.65 | -5 | .
Cc1cc(C(=O)N/N=C/c2c[nH]c3ccccc23)c(C)o1 | . | -1.0 | 1.5 | -7 | . | 43 | i

Complete entries from above:
COC(=O)c1ccc(NC(=S)NCCCn2ccnc2)cc1 is listed as UCH37 inh = 5.8; HNF4A DNA FP = -2.0; LANA-H2B inh = -4.1; B2AR ag = -1; E coli growth = 0.71; ALR inh = -4; FGF22 binding = i
COc1ccc(NC(=O)CSc2nnc(-c3cccnc3)n2C)cc1 is listed as UCH37 inh = 2.0; HNF4A DNA FP = 0.8; LANA-H2B inh = 3.7; B2AR ag = 6; E coli growth = 0.64; ALR inh = .; FGF22 binding = i

Going on with the list.
SMILES | UCH37 inh | HNF4A DNA FP | LANA-H2B inh | B2AR ag | E coli growth | ALR inh | FGF22 binding
CCCCN1C(=O)C(O)(CC(=O)c2c(C)n[nH]c2C)c2cc(Br)ccc21 (stereo unspecified) | 1.8 | -1.2 | 5.3 | 17 | 0.71 | -1 | .
Cn1cncc1COC(=O)c1ccc(Cl)cc1 | 3.1 | 1.5 | 1.8 | -8 | 0.68 | . | i
CN(CCOCCOc1ccc(Cl)cc1Br)Cc1ccccc1 | 2.1 | -0.7 | 3.1 | -4 | 0.68 | -6 | i
COc1cc(C#N)ccc1OCC(=O)NCc1cccs1 | 6.7 | -1.6 | -1.7 | -3 | 0.68 | -4 | .
CCCc1nnc(NC(=O)CCC(=O)NC2CCCC2)s1 | 3.4 | 0.5 | 1.0 | -5 | 0.72 | 2 | i
C=CCSc1nnnn1-c1ccc(OC)cc1 | 0.4 | -1.5 | -0.7 | 5 | 0.69 | 0 | .
CC(C)(C)NC(=O)C1N(c2cccnc2)C(=O)C2C(C(=O)Nc3ccccc3)C3(C)C=CC21O3 (stereo unspecified) | 0.3 | -4.3 | 2.4 | 4 | 0.66 | -3 | .
O=C(/C=C/c1ccc(Br)o1)OCc1nc2ccsc2c(=O)[nH]1 | . | -55 | -1.2 | 5 | . | -15 | .
Cn1nc(C(F)(F)F)cc1-c1ccc(/C=C(\C#N)C(=O)c2ccccc2)s1 | . | 0.9 | 20* | -4 | . | -34 | .
CCC(NC(=S)NC1CCCCC1)c1ccc(C)cc1 (stereo unspecified) | . | -0.7 | 6.0 | -1 | . | -12 | .
O=C(COC(=O)/C=C/c1ccccc1)Nc1nnc(-c2ccccc2)o1 | 0.1 | -1.8 | -3.3 | 3 | 0.65 | 1 | i
C=CCN1CCN(C(CCC)c2nnnn2Cc2ccco2)CC1 (stereo unspecified) | 2.3 | -0.1 | 2.7 | 2 | 0.62 | -11 | i
COc1ccc(Cc2nnc(NCCO)[nH]c2=O)cc1 | 4.3 | 1.2 | 1.7 | 5 | 0.69 | . | i
CC(=O)N1CCc2cc(Br)cc(S(=O)(=O)N3CCN(c4ccccn4)CC3)c21 | -0.8 | -0.1 | -1.9 | 5 | 0.73 | -5 | .
O=c1cc(O)nc(-c2ccccc2)s1 | -0.6 | 1.1 | 2.4 | 3 | 0.65 | -30 | i
COc1ccccc1N1CCN(C(=O)c2ccc(N3CCCC3=O)cc2)CC1 | -1.8 | 0.2 | 2.6 | -5 | 0.77 | 8 | .
CCCCNC(=O)CNC(=S)N(Cc1ccccc1F)C1CCCCC1 | 1.6 | 2.3 | -1.0 | -5 | 0.69 | . | i
c1ccc(OCCCc2nc(-c3cccnc3)no2)cc1 | 2.4 | -6.0 | -2.6 | 0 | 0.67 | 1 | .
O=C(O)CN1CCN(C(c2ccccc2)c2ccccc2)CC1 | 5.9 | 1.5 | 2.3 | 9 | 0.68 | . | i
CC1CCCN(CC(=O)Nc2ccc(S(=O)(=O)N3CCCC3)cc2)C1 (stereo unspecified) | 2.5 | -1.9 | 1.6 | 1 | 0.66 | 3 | i
COc1ccc2oc(=O)c(-c3cn4ccc(C)cc4n3)cc2c1 | -41 | 7.9 | 3.0 | 1 | 0.74 | -2 | i
c1ccc(Oc2nc3ccccc3n3cccc23)cc1 | -5.2 | -2.1 | 0.3 | -13 | 0.71 | 3 | .
Cn1c(=O)c2ncn(CC(=O)N/N=C/c3ccco3)c2n(C)c1=O | . | -5.4 | -0.5 | 2 | . | -10 | .
Cc1ccc(NC(=O)c2cc(S(=O)(=O)N3CCC4(CC3)OCCO4)ccc2F)cc1 | 1.9 | -0.8 | 1.8 | -16 | 0.72 | -1 | .
